VDR inh – vitamin D3 receptor (human) inhibition | P11473 | VDR-SRC2-3 peptide fluorescence polarization, 2 h | Potency, µM, without a hit: max response, negative = inhibition, most hits filed as inhibitors | 400,000 tested, 0.93% active | AID 504847; active = well fitted inhibition curve with a large enough effect; inconclusive = small, poorly fitted or top-dose-only effect, or another doubt; inactive = no such curve, though single readings can be large or run the other way; note: series mostly up to about 120 µM
Target sequence (P11473 whole entry, looked up): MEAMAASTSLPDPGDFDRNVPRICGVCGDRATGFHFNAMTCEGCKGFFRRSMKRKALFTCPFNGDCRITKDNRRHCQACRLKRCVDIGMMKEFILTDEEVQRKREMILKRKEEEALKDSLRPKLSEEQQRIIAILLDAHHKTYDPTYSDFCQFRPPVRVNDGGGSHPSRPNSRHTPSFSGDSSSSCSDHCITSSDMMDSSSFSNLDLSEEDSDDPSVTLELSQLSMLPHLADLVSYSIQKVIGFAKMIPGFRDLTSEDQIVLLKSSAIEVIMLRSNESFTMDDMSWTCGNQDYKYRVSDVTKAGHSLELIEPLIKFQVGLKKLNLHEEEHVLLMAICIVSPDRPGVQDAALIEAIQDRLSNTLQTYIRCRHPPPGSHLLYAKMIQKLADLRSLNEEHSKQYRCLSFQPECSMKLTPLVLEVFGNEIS
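Inhibition of the VDR/SRC2-3 peptide interaction is quantified by fluorescence polarization. Compounds (23 nl, pintool) incubate with the reagents for 2 hours at ambient room temperature.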
* marks the source's active call; other numbers are inactive results; ? = inconclusive; & = joins results of further samples. % is set by controls: 0 for no effect and ±100 for the full control effect; potency is the fitted concentration of half-maximal effect. This is a subset; rates above refer to the full screens.

SMILES	VDR inh
CCc1cccc(N=c2c([N+](=O)[O-])nn(-c3ccc4c(c3)OCCO4)n2O)c1	-18%
CCSc1ncc(/C=N/Nc2ccc([N+](=O)[O-])cc2)n1C	-1%
CCOc1ccc(CCNC(=O)C2CC(=O)N(c3ccccc3OCC)C2)cc1OCC (centres undefined)	-4%
CC(=O)n1c(=O)oc2ccccc21	0%
CCN1CCN(c2ncnc3c2nnn3Cc2ccccc2)CC1	-21%
Cc1ccc(S(=O)(=O)N(C)C)cc1NS(=O)(=O)c1ccc(Cl)s1	-5%
O=C(/C(C=Nc1ccc(F)cc1)=C(/O)c1ccco1)C(F)(F)F	0%
Cc1ccc(-c2csc(NC(=O)c3ccc([N+](=O)[O-])o3)n2)cc1	0%
Cc1cc(=O)oc2cc(OCc3ccc(C(=O)OCC(=O)NC4CCS(=O)(=O)C4)cc3)ccc12 (centres undefined)	4%
Cc1cc(C)cc(OCC(=O)OCC(=O)NC2CCCCCC2)c1	12%
COc1ccc(N2CCN(C(c3cccs3)C(C)NC(=O)c3ccc4c(c3)OCO4)CC2)cc1 (centres undefined)	-18%
CC(=O)N1N=C(c2cccc([N+](=O)[O-])c2)OC1(C)c1cccs1 (centres undefined)	-11%
CCCC/C=C/[C@H](c1ccccc1)[C@H](CO)Cc1cccnc1	-10%&9%
Clc1ccccc1-c1nn2c(COc3ccccc3)nnc2s1	-9%
O=C(CN1CCCc2ccccc21)Nc1ccccc1[N+](=O)[O-]	-3%
CN(c1ccc(OCC(=O)Nc2nc(-c3ccccc3)cs2)cc1)S(=O)(=O)c1ccc(F)cc1	-10%
N#Cc1c(-c2ccc(Cl)cc2)nc2n(c1=O)CCCS2	-10%
CC(C)CNC(=O)Cn1c(=O)c2c(ncn2CC(C)C)n(Cc2ccccc2)c1=O	-13%
COc1cc(OC)c(OC)cc1CN1CCN(S(=O)(=O)c2ccc(F)cc2)CC1	0%
O=C(NC1CCCCC1)C(c1ccc2ncccc2c1)N(Cc1ccccc1)C(=O)c1ccc2c(c1)OCCO2 (centres undefined)	-21%
C/C(=N\Nc1nc(C)cc(C)n1)c1ccc(N2CCOCC2)cc1	?
CC(=O)Nc1nc2cc([N+](=O)[O-])ccc2s1	-9%
O=C(NC(=S)Nc1ccccn1)c1ccco1	4%
O=C(O)CC(CC(=O)Nc1ccc2ccccc2n1)c1ccccc1 (centres undefined)	-1%
C=CCC[C@H](Cc1ccc(F)cc1)C(=O)OC[C@@H](NC(=O)[C@@H](CC=C)CC(=O)N[C@H](CO)Cc1ccccc1)C(C)(C)C	0%
COc1cccc(/C=C2/SC(=S)N(CC(=O)Nc3nccs3)C2=O)c1	0%
O=C(COC(=O)C1CCN(c2ccc(C(F)(F)F)cn2)CC1)c1ccccc1	4%
COc1ccc(C(=S)N2CCN(C)CC2)cc1	-1%
CC(C)(C)NC(=O)CN(C(=O)CN1C(=O)C(=O)c2ccccc21)C(C)(C)C	-2%
CC(C)[C@H](NC(=O)OCc1ccccc1)C(=O)NC(C=O)Cc1ccccc1 (some centres undefined)	-9%

A second format for part of the listing above.
| structure | VDR inh |
| --- | --- |
| O=C(NC(=S)Nc1ccccn1)c1ccco1 | 4% |
| O=C(O)CC(CC(=O)Nc1ccc2ccccc2n1)c1ccccc1 (centres undefined) | -1% |
| C=CCC[C@H](Cc1ccc(F)cc1)C(=O)OC[C@@H](NC(=O)[C@@H](CC=C)CC(=O)N[C@H](CO)Cc1ccccc1)C(C)(C)C | 0% |
| COc1cccc(/C=C2/SC(=S)N(CC(=O)Nc3nccs3)C2=O)c1 | 0% |

(further entries)
SMILES	VDR inh
COc1cc(CSc2nc(-c3ccccc3)cc(=O)[nH]2)cc(OC)c1	-27%
Cc1cccc(NC(=O)Cn2c(=O)n(CCc3ccccc3)c(=O)c3ccccc32)c1	-15%
COC(=O)c1ccc(NC(=O)CN(Cc2ccc(Cl)cc2)S(C)(=O)=O)cc1	-5%
CC(C)(C)OC(=O)N[C@H](C(=O)OC(C)(C)C)c1ccc2c(c1)OCO2	-6%
COc1ccc(N2C(=O)C3CC(C)=C(C)CC3C2=O)c(OC)c1 (centres undefined)	-2%
Cc1ccc2c(c1)C(=O)CC1(CCCCCC1)O2	-2%
CC(=O)Nc1ccc(S(=O)(=O)Nc2ccc(-c3ccc4nnc(C)n4n3)cc2)cc1	-16%
N#Cc1ccccc1S(=O)(=O)N1CCN(c2nc(-c3ccccc3)nc3ccccc23)CC1	-2%
Cc1cc(C)c2c3c(cn2n1)c(=O)n(C)c(=O)n3C	-3%
Cc1ccc(S(=O)(=O)N(C)C[C@H]2Oc3ccc(NC(=O)Nc4c(C)noc4C)cc3CC(=O)N([C@@H](C)CO)C[C@@H]2C)cc1	-24%
CN(CC(=O)Nc1ccccc1C(F)(F)F)C(=O)c1cccc(-n2cccc2)c1	-2%
CC(C)NC(=O)Nc1cccc2c1O[C@H](CN(C)C(=O)NC1CCCCC1)[C@H](C)CN([C@H](C)CO)C2=O	-15%
COc1cccc(NC(=O)CN(C)C(=O)c2ccc(COc3ccccc3)o2)c1	-3%
Cc1cc(=O)oc(C)c1C(=O)Nc1ccc(F)cc1	-30%
F[B-](F)(F)c1cncc2ccccc12	-13%
CCn1cnc2c1c(=O)n(CC(=O)Nc1cc(C)on1)c(=O)n2Cc1ccccc1	0%
Cc1ccc2c(c1)nc(NCCO)n2C	-11%
S=c1[nH]c2cc3ccccc3cc2[nH]1	-8%
COc1ccc(NC(=O)CCN2C(=O)c3cccc([N+](=O)[O-])c3C2=O)cc1	-9%
O=C(c1ccccc1[N+](=O)[O-])N1CCc2ccccc2C1	13%
O=c1[nH]c2ccc(NC(=S)NCc3ccccc3)cc2[nH]1	-21%
C=C(NCc1ccccc1)c1ccccc1O	2%
CS(=O)(=O)N(CC(=O)N1CCOCC1)c1ccccc1	-3%
O=C(CCS(=O)(=O)c1ccc(Cl)cc1)Nc1nnc(-c2ccco2)o1	-8%
CCOc1cc(/C=C2\NC(=S)N(C)C2=O)ccc1OCc1ccc(C(=O)O)cc1	?
COc1ccc(N2CCOCC2)c(NC(=O)c2cccc3ccccc23)c1	7%
Cc1cccc(NC(=O)c2ccc(-n3ccnc3)nc2)c1	?
Cc1cc(Br)ccc1NC(=O)CCSc1ccccc1	20%
Cc1cc(=O)oc(C)c1C(=O)OCC(=O)c1ccc(Cl)cc1	18%
Cc1ccc(Cl)cc1N1CCN(C(=O)CCCn2c(=O)c3cccn3c3cccnc32)CC1	2%
CCc1ccccc1N1C(=O)N(Cc2ccc(C#N)cc2)c2ccccc2S1(=O)=O	-19%
CC(=O)NCc1ccc(S(=O)(=O)N2CCN(S(=O)(=O)c3ccc4ccccc4c3)CC2)cc1	-3%
Cc1ccc(NC(=O)NN(C)c2c(Cl)c(Cl)nn2C)cc1	13%
CCc1cnc2c(c1SCc1ccccc1C)c(=O)n(C)c(=O)n2C	10%
COC(=O)C=CC(=NNc1ccccc1)c1ccccc1	-12%
CC1CCN(C(=O)c2ccc(Br)c(S(=O)(=O)N3CCOCC3)c2)CC1	-14%
CCOC(=O)/C=C/S(=O)(=O)c1ccc(NC(C)=O)cc1	?
CCOC(=O)C1(Cc2ccccc2C(F)(F)F)CCN(C(C)COC)CC1 (centres undefined)	-4%
COc1cc(NC(=O)CSCC(=O)Nc2cc(OC)cc(OC)c2)cc(OC)c1	-3%
O=C(Nc1sc2c(c1C(=O)O)CCC2)c1ccco1	-9%
Nn1c(SCC(=O)NCCc2ccc(F)cc2)nnc1C1CCCCC1	6%
COc1cc(C(C)=O)ccc1Oc1cc(NN2CCCCC2)c([N+](=O)[O-])cc1[N+](=O)[O-]	-4%
COc1cccc(-c2nnc3sc(-c4cccs4)nn23)c1	-7%
Cn1cc(Br)c(C(=O)N/N=C/c2cc3ccccc3nc2Cl)n1	-3%
Cc1nn(Cc2c(Cl)cccc2Cl)c(C)c1C(=O)NCc1ccc(C)n1C	-7%
O=C(N/N=C/c1ccccn1)c1cc(-c2ccccc2)nc2ccccc12	-6%
Cc1ccnc(NC(=O)c2ccc(Br)s2)c1	7%
O=C1CC(c2ccc(F)cc2)CC(O)=C1C=NCCN1CCN(C(=O)Nc2ccccc2)CC1 (centres undefined)	10%
Cc1ccc(N2CC(C(=O)N/N=C/c3sccc3C)CC2=O)cc1 (centres undefined)	-11%
CCOc1nnc(C)c2c(C)n(-c3ccc(Cl)cc3)nc12	-7%

A second format for 22 compounds above:
Compound | VDR inh
COc1ccc(N2CCOCC2)c(NC(=O)c2cccc3ccccc23)c1 | 7%
Cc1cccc(NC(=O)c2ccc(-n3ccnc3)nc2)c1 | ?
Cc1cc(Br)ccc1NC(=O)CCSc1ccccc1 | 20%
Cc1cc(=O)oc(C)c1C(=O)OCC(=O)c1ccc(Cl)cc1 | 18%
Cc1ccc(Cl)cc1N1CCN(C(=O)CCCn2c(=O)c3cccn3c3cccnc32)CC1 | 2%
CCc1ccccc1N1C(=O)N(Cc2ccc(C#N)cc2)c2ccccc2S1(=O)=O | -19%
CC(=O)NCc1ccc(S(=O)(=O)N2CCN(S(=O)(=O)c3ccc4ccccc4c3)CC2)cc1 | -3%
Cc1ccc(NC(=O)NN(C)c2c(Cl)c(Cl)nn2C)cc1 | 13%
CCc1cnc2c(c1SCc1ccccc1C)c(=O)n(C)c(=O)n2C | 10%
COC(=O)C=CC(=NNc1ccccc1)c1ccccc1 | -12%
CC1CCN(C(=O)c2ccc(Br)c(S(=O)(=O)N3CCOCC3)c2)CC1 | -14%
CCOC(=O)/C=C/S(=O)(=O)c1ccc(NC(C)=O)cc1 | ?
CCOC(=O)C1(Cc2ccccc2C(F)(F)F)CCN(C(C)COC)CC1 (centres undefined) | -4%
COc1cc(NC(=O)CSCC(=O)Nc2cc(OC)cc(OC)c2)cc(OC)c1 | -3%
O=C(Nc1sc2c(c1C(=O)O)CCC2)c1ccco1 | -9%
Nn1c(SCC(=O)NCCc2ccc(F)cc2)nnc1C1CCCCC1 | 6%
COc1cc(C(C)=O)ccc1Oc1cc(NN2CCCCC2)c([N+](=O)[O-])cc1[N+](=O)[O-] | -4%
COc1cccc(-c2nnc3sc(-c4cccs4)nn23)c1 | -7%
Cn1cc(Br)c(C(=O)N/N=C/c2cc3ccccc3nc2Cl)n1 | -3%
Cc1nn(Cc2c(Cl)cccc2Cl)c(C)c1C(=O)NCc1ccc(C)n1C | -7%
O=C(N/N=C/c1ccccn1)c1cc(-c2ccccc2)nc2ccccc12 | -6%
Cc1ccnc(NC(=O)c2ccc(Br)s2)c1 | 7%

Following part
SMILES	VDR inh
S=c1[nH]nc(-c2ccncc2)n1CC1CCCO1 (centres undefined)	3%
CCNC(=O)N1CCNC(=O)C1CC(=O)Nc1ccc(C(=O)OCC)cc1 (centres undefined)	2%
COc1ccccc1N1CCN(Cc2ccco2)CC1	-2%
O=c1cc2oc3cc(O)c(O)cc3c(-c3ccccc3O)c-2cc1O	?
CCCCOc1ccc(CSc2nncn2N)cc1	19%
Cc1ccc(N(C)C(=O)c2cnn(-c3ccccc3)c2C)c(C)c1	-5%
CC(C)(C)c1ccc(OC(=O)CN2C(=O)C3C4CCC(C4)C3C2=O)cc1 (centres undefined)	10%
CCCOC(=O)CCCCCCCCC(O)CN1CCCCC1 (centres undefined)	3%
Cc1[nH]c2ccccc2c1CCC(N)=O	5%
COCCNC(=O)c1c(C)cc(C)cc1C	-9%
NC(=O)NN=C1c2cc(S(=O)(=O)N3CCOCC3)ccc2-c2ccc(S(=O)(=O)N3CCOCC3)cc21	23%
CC(=O)c1ccc(Nc2c3ccccc3cc3occc23)cc1	0%
CN(C)/C=C1\N=C(c2cccs2)OC1=O	2%
COc1ccc2c(c1)[nH]c1c(=O)n(N)cnc12	-1%
COc1cc(NC(=O)Cn2cnc3sc(C)c(S(=O)(=O)N4CCN(C)CC4)c3c2=O)cc(OC)c1OC	7%
CC(C)(C)OC(=O)N1CCN(C(=O)c2[nH]cnc2C(=O)N[C@@H](Cc2ccccc2)C(=O)OCc2ccccc2)CC1	-13%
COc1ccc(NC(=O)CSc2nnc(-c3cccs3)n2-c2ccccc2)cc1	-3%
Cc1occc1C(=O)N/N=C/c1ccc(Br)s1	-8%
CC1(C)CC(=O)c2cc3c(N)c(C(=O)NCc4ccccc4)sc3nc2C1	0%
COc1ccc(Cc2nc3ccc(C(=O)N4C[C@@H](C)O[C@@H](C)C4)cc3o2)cc1OC	-7%
CCOC(=O)c1ccc(S(=O)(=O)Nc2ccc(N3CCOCC3)cc2)cc1	-15%
CCN1CCN(c2ccc(S(=O)(=O)N3CCCCC3)cc2NC(=O)Cc2ccccc2F)CC1	11%
Cc1cc2ncn(C(=O)c3ccc(F)cc3)c2cc1C	-14%
COc1ccc(CN(C(=O)c2cccs2)c2ccccc2)cc1	3%
COc1ccccc1NC(=O)COC(=O)c1ccccn1	-10%
COc1ccc(OCCN2CCN(S(=O)(=O)c3ccccc3C(F)(F)F)CC2)cc1	-6%

Screening data from PubChem BioAssay.
